AF4-AF9 inh: MLL-AF4/AF9 protein interaction inhibition; actives 0.47% (n = 350,000); inhibition, % at 10 µM; P42568; AlphaScreen, biotin-AF4 peptide binding to FLAG-AF9;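 active means every replicate reaching a set inhibition limit, whatever the replicate mean, cut at about 25% in these data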;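 further: 0% = plate neutral control median and 100% = total signal loss; the record names both 10 and 1 µM as test concentration; the first replicate is given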
Target sequence (P42568 whole entry, looked up): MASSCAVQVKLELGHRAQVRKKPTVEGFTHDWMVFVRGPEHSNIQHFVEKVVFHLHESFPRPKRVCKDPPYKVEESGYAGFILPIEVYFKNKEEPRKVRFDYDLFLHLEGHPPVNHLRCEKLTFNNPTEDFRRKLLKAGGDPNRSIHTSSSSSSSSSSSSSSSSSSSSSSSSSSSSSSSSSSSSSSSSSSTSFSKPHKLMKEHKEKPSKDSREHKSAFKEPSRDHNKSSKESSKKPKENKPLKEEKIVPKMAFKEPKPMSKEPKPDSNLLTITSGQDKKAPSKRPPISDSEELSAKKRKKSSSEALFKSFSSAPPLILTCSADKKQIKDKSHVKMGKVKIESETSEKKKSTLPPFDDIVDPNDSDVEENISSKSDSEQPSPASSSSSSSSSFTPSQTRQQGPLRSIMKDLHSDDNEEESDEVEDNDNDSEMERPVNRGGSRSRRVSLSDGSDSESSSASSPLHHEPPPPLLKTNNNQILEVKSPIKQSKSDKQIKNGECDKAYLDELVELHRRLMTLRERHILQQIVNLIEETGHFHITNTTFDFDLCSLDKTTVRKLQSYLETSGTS
Ecoli rRNA inh: selective bacterial rRNA inhibition in E. coli | E. coli WT GFP vs humanized-ribosome RFP mutants, fluorescence, 24 h; stronger effect = lower value; DMSO median 0, no signal -100 | GFP signal change (wild-type ribosome), % (test concentration not listed) | actives 1.6% (n = 350,000);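 active means significant combined selectivity score with lowered wild-type GFP, culture density cut under 30%, mutant RFP and density less affected; inactive means any of these conditions unmet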; further: one replicate is shown; some compounds called inactive have numbers as strong as hits
FGF22 binding: FGF22 (human) thermal shift binding; actives 1.5% (n = 340,000); recombinant FGF22 thermal shift, SYPRO orange fluorescence; percent of sucrose octasulfate shift, DMSO zero; AID 651658; calls only at 9.99 µM; Q9HCT0;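 active means melting point raised past a set limit in the mean and every replicate; three in four hits are not shown here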
Target sequence (Q9HCT0 whole entry, looked up): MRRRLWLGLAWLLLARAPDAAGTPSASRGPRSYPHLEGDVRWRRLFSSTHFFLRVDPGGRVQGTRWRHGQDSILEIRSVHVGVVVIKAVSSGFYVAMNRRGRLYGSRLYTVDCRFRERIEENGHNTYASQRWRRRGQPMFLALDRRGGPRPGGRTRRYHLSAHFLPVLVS
Ecoli rRNA inh OD600: recorded beside Ecoli rRNA inh, whose call it bears; OD600 change, %; measured here: OD600 growth;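 optical density of the mix in the first replicate; 0 = DMSO median and -100 = no signal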
Ecoli rRNA inh RFP: further read-out of Ecoli rRNA inh, marked with its call; RFP signal change, %; measured here: RFP humanized mutant strains;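 first replicate; 0 = DMSO median and -100 = no signal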
Numbers without * were called inactive; i = inactive.

SMILES | AF4-AF9 inh | Ecoli rRNA inh | Ecoli rRNA inh OD600 | Ecoli rRNA inh RFP | FGF22 binding
O=C(C[C@@H]1C[C@@H]2c3cc(NC(=O)Nc4ccccc4F)ccc3O[C@@H]2[C@@H](CO)O1)NCc1ccc(Oc2ccccc2)cc1 | 7.9 | 0 | 3 | 0.5 | i
CC(C)C(=O)Nc1ccc2c(c1)C(=O)N(C)[C@@H]1CC[C@H](CC(=O)Nc3ccccc3)O[C@@H]1CO2 | 0.3 | -1 | -7 | -0.1 | i
CC(O)(Cc1ccccn1)Cc1ccccn1 | -6.2 | 8 | 10 | -4.9 | i
CCOc1ccc(Cl)cc1-c1cc(C(=O)NC(C)C)[nH]n1 | 2.5 | -8 | -11 | 0.6 | i
CO[C@@H]1CN(C)C(=O)c2cc(NC(=O)C3CC3)ccc2OC[C@H](C)N(Cc2cccc(F)c2)C[C@@H]1C | 3.3 | -4 | -3 | 1.3 | i
C[C@@H]1CCCCO[C@H](CN(C)CC2CCCCC2)[C@H](C)CN([C@H](C)CO)C(=O)c2cc(NC(=O)Nc3ccc4c(c3)OCO4)ccc2O1 | -17 | -27 | -51 | 23 | i
CN(C)c1ccc2c(c1)[C@@H]1C[C@@H](CC(=O)NCc3ccc(Cl)cc3)O[C@H](CO)[C@@H]1O2 | 4.2 | -6 | -8 | 1.3 | i
O=C(Nc1cccc(OC(F)(F)F)c1)[C@@H]1O[C@H](CO)[C@H](O)[C@H](O)[C@H]1O | 2.9 | 8 | 12 | 0.2 | i
C[C@@H]1CN([C@@H](C)CO)C(=O)c2cc(NS(=O)(=O)c3ccc(Cl)cc3)ccc2O[C@@H]1CN(C)C(=O)Nc1ccc(F)cc1 | 0.6 | -2 | 0 | -2.4 | i
C[C@@H]1CN([C@@H](C)CO)C(=O)c2cc(-c3ccccc3)cnc2O[C@@H]1CN(C)C(=O)c1ccccn1 | -3.8 | -2 | 10 | -3.2 | i
CCC(=O)Nc1ccc2c(c1)C(=O)N(C)C[C@H](OC)[C@@H](C)CN(C(=O)NC(C)C)[C@@H](C)CO2 | -1.0 | 2 | 3 | 1.2 | i
CCN(c1ccccc1)S(=O)(=O)c1cccc(C(=O)Nc2cccc(C)n2)c1 | 2.6 | -23 | -47 | -6.5 | i
C[C@H](NC(=O)C[C@@H]1C=C[C@@H](NC(=O)c2cccnc2)[C@H](CO)O1)c1ccccc1 | -14 | 2 | 15 | -0.5 | i
Cc1cccc(C)c1-n1nnnc1C1(C)CCC(=O)N1C1CCN(Cc2ccccc2)CC1 (stereo not given) | -2.2 | 13 | 24 | 4.6 | i
CCC(=O)Nc1ccc2c(c1)C(=O)N(C)[C@@H]1CC[C@H](CC(=O)N3CCCCC3)O[C@H]1CO2 | -0.3 | 1 | 1 | -3.2 | i
CC(C)NC(=O)Nc1ccc2c(c1)C(=O)N([C@@H](C)CO)C[C@H](C)[C@@H](CN(C)C)O2 | -1.0 | 4 | 6 | -1.5 | i
COCC(=O)N(C)C[C@H]1Oc2cc(-c3ccc(F)cc3)ccc2S(=O)(=O)N([C@H](C)CO)C[C@H]1C | 3.1 | 0 | -11 | -1.6 | i
O=C(NCc1cccc(C(F)(F)F)c1)c1c[nH]c(=O)s1 | -6.0 | 14 | 9 | 11 | i
N#C[C@H]1[C@@H](c2ccccc2)[C@H](CO)N1S(=O)(=O)c1ccc(F)cc1 | -0.7 | 3 | -1 | -3.4 | i
C[C@H](CO)N1C[C@H](C)[C@@H](CN(C)Cc2ccc(Oc3ccccc3)cc2)OCc2ccccc2-c2ccccc2C1=O | 4.5 | -1 | 3 | 0.3 | i
COc1ccc(CN(CC(O)COCc2ccccc2)S(=O)(=O)c2ccccc2Br)cc1OC (stereo not given) | 0.0 | -21* | -14* | 2.0* | i
CCOC(=O)c1c(C)[nH]c(C(=O)COC(=O)c2c(CC)noc2C)c1C | -10 | -1 | -1 | -1.2 | i
CCCNC(=O)Nc1ccc2c(c1)C(=O)N(C)C[C@@H](OC)[C@H](C)CN(C(=O)C1CCC1)[C@H](C)CO2 | -0.7 | 5 | 13 | -2.5 | i
CN1CCN(C(=O)C[C@H]2C[C@H]3c4cc(NC(=O)C5CCC5)ccc4O[C@H]3[C@@H](CO)O2)CC1 | -3.4 | 4 | -2 | -0.3 | i
CO[C@H]1CN(C)C(=O)c2ccc(NC(=O)Cc3ccccc3)cc2OC[C@@H](C)N(C(C)=O)C[C@@H]1C | -2.0 | 1 | 6 | -2.8 | i
O=C(Cc1ccccn1)NCC[C@@H]1CC[C@@H](NC(=O)Nc2ccccc2)[C@H](CO)O1 | 0.2 | -1 | 4 | -3.3 | i
Cc1noc(C)c1NC(=O)N(C)C[C@H]1OCCCC[C@@H](C)Oc2ccc(NC(=O)c3ccncc3)cc2C(=O)N([C@@H](C)CO)C[C@@H]1C | -7.8 | 3 | 10 | -0.8 | i
CO[C@H]1CN(C)C(=O)c2ccc(NS(=O)(=O)C3CCCCC3)cc2OC[C@@H](C)NC[C@H]1C | -5.3 | 1 | 1 | 0.4 | i
COc1ccc(C#Cc2cnc3c(c2)C(=O)N([C@H](C)CO)C[C@H](C)[C@H](CN(C)C(=O)Nc2ccccc2)O3)cc1OC | 1.5 | -3 | -4 | 6.1 | i
CCCNC(=O)N[C@@H]1CC[C@H](CCn2cc(C3CC3)nn2)O[C@H]1CO | -1.4 | 1 | 5 | 3.1 | i
C[C@H]1CN([C@@H](C)CO)S(=O)(=O)c2ccc(-c3cccc(F)c3)cc2O[C@@H]1CN(C)C(=O)c1cccc(F)c1 | 5.0 | -13 | -43 | 12 | i
C[C@H]1CN([C@@H](C)CO)C(=O)c2cc(NC(=O)CCN3CCOCC3)ccc2O[C@H]1CN(C)S(=O)(=O)c1cn(C)cn1 | -1.3 | 3 | 7 | -0.2 | i
C[C@@H]1CN([C@H](C)CO)C(=O)c2cc(NC(=O)Cn3cnnn3)ccc2O[C@@H]1CN(C)Cc1ccc(C(F)(F)F)cc1 | -3.9 | -1 | -6 | -0.2 | i
C[C@@H]1CCCCO[C@@H](CN(C)C(=O)Nc2cccc3ccccc23)[C@H](C)CN([C@@H](C)CO)C(=O)c2cc(NC(=O)Nc3cccc4ccccc34)ccc2O1 | -3.0 | 4 | 9 | -1.8 | i
CC1(c2nnnn2C2CCCC2)CCC(=O)N1c1ccc2c(c1)OCCO2 (stereo not given) | 0.6 | 17 | 18 | -2.3 | i
CS(=O)(=O)N1CC(=O)N2[C@H](C1)[C@@H](c1ccc(Br)cc1)[C@@H]2CO | -3.6 | 4 | 0 | -2.7 | i
COc1ccc(CCNC(=O)CNC(=O)N2CC(=O)Nc3ccccc32)cc1 | 1.0 | 1 | 8 | 0.3 | i
CC(=O)Nc1ccc(CN(C)c2c(C)nc3ccc(C(=O)NCCCN4CCCC4=O)cn23)cc1 | -0.7 | 13 | 19 | 3.9 | i
COCC(=O)Nc1ccc2c(c1)C(=O)N(C)[C@H]1CC[C@@H](CC(=O)Nc3ccccc3)O[C@@H]1CO2 | 0.2 | 2 | 5 | -4.3 | i
C[C@@H]1CN([C@@H](C)CO)C(=O)c2cc(C3=CCCC3)cnc2O[C@@H]1CN(C)C(=O)c1ccccc1 | -0.7 | 6 | 9 | -4.3 | i
O=C(C[C@H]1CC[C@H](NS(=O)(=O)c2ccc(F)cc2)[C@H](CO)O1)NCc1ccc(Cl)c(Cl)c1 | 1.3 | 7 | 6 | -0.4 | i
CCN1C(=O)CC2CCCC1C2 (stereo not given) | -4.4 | 3 | 11 | 1.5 | i
C[C@@H]1CCCCO[C@@H](CN(C)S(=O)(=O)c2ccccc2)[C@@H](C)CN([C@@H](C)CO)C(=O)c2cc(NC(=O)Cc3ccccc3)ccc2O1 | -3.3 | 0 | 12 | -0.3 | i
CS(=O)(=O)N1[C@H](CO)[C@@H](c2ccccc2)C12CN(Cc1ccccn1)C2 | -2.3 | 8 | 23 | 3.3 | i
C[C@@H]1CN([C@H](C)CO)C(=O)c2cc(NS(=O)(=O)c3cccs3)ccc2O[C@H]1CN(C)C(=O)NC1CCCCC1 | -1.0 | 0 | -1 | 1.0 | i
COc1cccc(C(O)c2nc(-c3ccccc3OC)cs2)c1 (stereo not given) | -0.7 | -63 | -79 | -22 | i
C[C@@H]1CN([C@@H](C)CO)C(=O)CCCn2nncc2CO[C@@H]1CN(C)Cc1ccc(Cl)c(Cl)c1 | 2.1 | -11 | -20 | 4.7 | i
COc1ccccc1-c1ccc([C@H]2[C@@H](CO)N3CCCCN(C(=O)NC4CCCC4)C[C@H]23)cc1 | 3.9 | 4 | -9 | 4.0 | i
O=C(C[C@H]1CC[C@H](NC(=O)NC2CCCC2)[C@@H](CO)O1)NCc1ccc(F)cc1 | 1.6 | -8 | -4 | -1.1 | i
COCCn1c(=O)[nH]c2cc(C(=O)N3CCN(Cc4ccc5c(c4)OCO5)CC3)ccc2c1=O | 7.4 | 13 | 4 | -3.2 | i

6 records picked at random from those above, as already listed:
SMILES | AF4-AF9 inh | Ecoli rRNA inh | Ecoli rRNA inh OD600 | Ecoli rRNA inh RFP | FGF22 binding
O=C(C[C@H]1CC[C@H](NS(=O)(=O)c2ccc(F)cc2)[C@H](CO)O1)NCc1ccc(Cl)c(Cl)c1 | 1.3 | 7 | 6 | -0.4 | i
CO[C@@H]1CN(C)C(=O)c2cc(NC(=O)C3CC3)ccc2OC[C@H](C)N(Cc2cccc(F)c2)C[C@@H]1C | 3.3 | -4 | -3 | 1.3 | i
C[C@@H]1CN([C@@H](C)CO)C(=O)c2cc(C3=CCCC3)cnc2O[C@@H]1CN(C)C(=O)c1ccccc1 | -0.7 | 6 | 9 | -4.3 | i
C[C@@H]1CN([C@@H](C)CO)C(=O)c2cc(-c3ccccc3)cnc2O[C@@H]1CN(C)C(=O)c1ccccn1 | -3.8 | -2 | 10 | -3.2 | i
CCCNC(=O)N[C@@H]1CC[C@H](CCn2cc(C3CC3)nn2)O[C@H]1CO | -1.4 | 1 | 5 | 3.1 | i
CC(O)(Cc1ccccn1)Cc1ccccn1 | -6.2 | 8 | 10 | -4.9 | i

Next part.
SMILES | AF4-AF9 inh | Ecoli rRNA inh | Ecoli rRNA inh OD600 | Ecoli rRNA inh RFP | FGF22 binding
C[C@@H]1CN([C@H](C)CO)S(=O)(=O)c2ccc(C#CC(C)(C)O)cc2O[C@H]1CN(C)CC1CC1 | 0.5 | -1 | -8 | -0.4 | i
C[C@@H]1CN([C@H](C)CO)C(=O)Cc2cc(NC(=O)C3CC3)ccc2O[C@H]1CN(C)Cc1ccccc1 | 1.9 | 2 | 0 | -2.2 | i
CO[C@H]1CN(C)C(=O)c2cc(NC(=O)NC(C)C)ccc2OC[C@H](C)N(Cc2ccc(-c3ccccn3)cc2)C[C@H]1C | -0.1 | -1 | -5 | 3.4 | i
CO[C@H]1CN(C)C(=O)c2ccc(NC(=O)Nc3cccc(F)c3)cc2OC[C@H](C)N(C(=O)Nc2c(C)noc2C)C[C@H]1C | 0.9 | -1 | -1 | 0.8 | i
COc1ccc(S(=O)(=O)N(C)C[C@H]2OCCCC[C@H](C)Oc3ccc(NS(=O)(=O)c4ccccc4)cc3C(=O)N([C@@H](C)CO)C[C@@H]2C)cc1 | -1.8 | -1 | -2 | 2.3 | i
COC(=O)c1ccc2nc(-c3ccco3)c(Cc3ccccc3C(F)(F)F)n2c1 | -1.3 | 1 | 9 | 0.9 | i
COCC(=O)N(C)C[C@@H]1Oc2ncc(-c3cccc(OC)c3)cc2C(=O)N([C@H](C)CO)C[C@@H]1C | 1.1 | -3 | -1 | -3.1 | i
COc1cccc(NC(=O)N(C)C[C@H]2Oc3ncc(C#Cc4cccnc4)cc3C(=O)N([C@H](C)CO)C[C@H]2C)c1 | -0.6 | -39* | 18* | 6.6* | i
C[C@@H]1CN([C@H](C)CO)C(=O)c2cc(-c3ccccc3)cnc2O[C@H]1CN(C)Cc1cccnc1 | -3.7 | 4 | 16 | -4.6 | i
CCCC(=O)N1CCOCC1c1cc(C(=O)NCc2ccccc2)no1 (stereo not given) | -4.0 | 7 | 11 | -1.2 | i
C[C@@H](NC(=O)C[C@H]1C[C@@H]2c3cc(NC(=O)c4ccc5c(c4)OCO5)ccc3O[C@@H]2[C@@H](CO)O1)c1ccccc1 | 4.3 | -12 | -22 | 0.8 | i
C[C@H](CO)N1C[C@H](C)[C@H](CN(C)C)OCCCC[C@H](C)Oc2ccc(N(C)C)cc2C1=O | -3.6 | 3 | 10 | 0.2 | i
COc1ccc(/C=C/C(=O)OCC(=O)Nc2nnc(-c3ccccc3)o2)c(OC)c1 | -3.2 | -14 | -57 | -5.7 | i
COC(=O)C[C@H]1CC[C@H]2[C@H](COc3ccc(NC(=O)Nc4ccccc4C)cc3C(=O)N2C)O1 | 0.3 | 1 | 9 | 1.0 | i
CCOC(=O)C1(C)CCCN1C(=O)c1ccc(Cl)nc1 (stereo not given) | -1.5 | 9 | 16 | -1.5 | i

These rows are one share of the data; count on the stated rates, not on these rows.
